Mtb MbtI inh – MbtI salicylate synthase inhibition; purified MbtI enzyme, fluorescence intensity read-out; inhibition, %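 (about 17 µg/mL by stock and volumes)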; actives 0.89% (n = 100,000);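 active = above 50% in both replicates, above 80% if mildly self-fluorescent; inactive = the rest, strongly fluorescent compounds included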;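 also: 0% = mean of negative and 100% = mean of positive controls; one replicate is shown; some compounds called inactive have numbers as strong as hits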
Target sequence (P9WFX0 whole entry, looked up): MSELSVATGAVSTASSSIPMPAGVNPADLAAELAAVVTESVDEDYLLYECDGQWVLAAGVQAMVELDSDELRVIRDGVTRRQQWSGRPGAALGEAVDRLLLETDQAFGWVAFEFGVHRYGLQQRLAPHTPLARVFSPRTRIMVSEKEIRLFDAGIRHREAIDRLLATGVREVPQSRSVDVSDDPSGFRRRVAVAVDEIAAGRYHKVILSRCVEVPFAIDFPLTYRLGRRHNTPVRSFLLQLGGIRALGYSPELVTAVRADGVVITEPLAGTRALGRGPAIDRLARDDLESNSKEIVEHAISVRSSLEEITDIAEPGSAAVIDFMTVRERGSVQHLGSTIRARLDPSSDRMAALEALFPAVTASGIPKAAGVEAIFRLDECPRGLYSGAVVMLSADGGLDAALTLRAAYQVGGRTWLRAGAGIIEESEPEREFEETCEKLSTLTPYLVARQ
MenB inh – blocks the Mycobacterium tuberculosis MenB enzyme | AID 540299 | actives 0.43% (n = 100,000) | inhibition, %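 (about 12 µg/mL by stock and volumes)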 | MenB enzyme assay, absorbance read-out; some hits fall short of the stated cut | P9WNP5;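 active = mean of two replicates above 30%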;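 also: 0% = no compound and 100% = wells with inactive enzyme; the first replicate is given; strong numbers were not always called active; inactives centre near -10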
Target sequence (P9WNP5 whole entry, looked up): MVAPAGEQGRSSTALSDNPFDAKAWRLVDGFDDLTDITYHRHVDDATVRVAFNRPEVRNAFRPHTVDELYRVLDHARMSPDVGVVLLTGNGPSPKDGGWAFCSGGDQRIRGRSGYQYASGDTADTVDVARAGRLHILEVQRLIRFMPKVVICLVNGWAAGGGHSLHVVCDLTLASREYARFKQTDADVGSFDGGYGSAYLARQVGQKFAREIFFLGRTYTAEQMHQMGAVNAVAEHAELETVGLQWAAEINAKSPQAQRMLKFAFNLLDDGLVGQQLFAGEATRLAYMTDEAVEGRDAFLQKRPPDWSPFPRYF
Polio RdRp inh – poliovirus RNA polymerase inhibition | P03300 | poliovirus polymerase elongation, fluorescence polarization; stronger effect = lower value | actives 0.66% (n = 150,000) | % elongation, % (compound at 16.7 µg/mL); in the data active = % elongation below about 90%; also: some results filed as inactive read as strong as hits
Polio RdRp inh intensity – further read-out of Polio RdRp inh, marked with its call; % elongation; measured here: total intensity read-out; formula for this scale not given here;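 total fluorescence in place of polarization; lower means less elongation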
* marks the source's active call; other numbers are inactive results; i = inactive; nt = no result given; & = joins results of further samples.

[1] CCOC(=O)NS(=O)(=O)c1ccc(-c2cc(C(F)(F)F)n(C)n2)s1
[2] CC1=C(C#N)C(=O)NC(=O)/C1=C/c1ccc(N(C)C)cc1
[3] C/C(=C\C(=O)Nc1ccc(Cl)cc1)NCc1ccco1
[4] CSc1ncc(/C=C2/C(=O)NC(=O)N(C3CCCCC3)C2=O)cn1
[5] Cc1ccc2cc(CCNC(=O)C3CCCCC3)c(=O)[nH]c2c1
[6] NC(=O)C1CCCN(CC(=O)N(Cc2cccs2)c2ccc3c(c2)OCCO3)C1 (stereo unspecified)

Screen / compound no.	1	2	3	4	5	6
Mtb MbtI inh	3	17	5	71*	-7	-4
MenB inh	-14	9	-4	-38	-4	-19
Polio RdRp inh	108	99	104	100	101	105
Polio RdRp inh intensity	107	102	102	102	102	108

Entries of single compounds from above:
C/C(=C\C(=O)Nc1ccc(Cl)cc1)NCc1ccco1 is entered as Mtb MbtI inh: 5; MenB inh: -4; Polio RdRp inh: 104; Polio RdRp inh intensity: 102
Cc1ccc2cc(CCNC(=O)C3CCCCC3)c(=O)[nH]c2c1 is entered as Mtb MbtI inh: -7; MenB inh: -4; Polio RdRp inh: 101; Polio RdRp inh intensity: 102

Additional results
[7] CN(CC(=O)Nc1ccccc1Cl)C1CCS(=O)(=O)C1 (stereo unspecified)
[8] COc1ccc(CNc2nc(-c3cccnc3)nn2C(=O)C2CC2)cc1OC
[9] CCC(C)N(C(=O)CSc1nc(NC)c2ccccc2n1)C1CCS(=O)(=O)C1 (stereo unspecified)
[10] COC(=O)C1=CN(c2ccc(F)cc2)C=C(C(=O)OC)C1c1ccc(OC)c(O)c1
[11] O=C(CSCc1ccccc1)Nc1nnc(Cc2ccccc2)s1
[12] CC(=O)NCc1nc(-c2ccccc2)no1

Screen / compound no.	7	8	9	10	11	12
Mtb MbtI inh	6	2	-5	-1	nt	-2
MenB inh	-22	-30	11	-4	-25	-5
Polio RdRp inh	99	103	104	100	100	101
Polio RdRp inh intensity	100	103	106	102	90	101

[13] C=CCNC(=S)N1CCN(CCN=CC2=C(O)CC(c3ccccc3)CC2=O)CC1 (stereo unspecified)
[14] Cc1nnc(Nc2ccc(S(N)(=O)=O)cc2)c2ccccc12
[15] COC(=O)C1CSCC/C1=N\Nc1ccc(Cl)cc1Cl (stereo unspecified)
[16] CCN1CCc2c(sc(NC(=O)c3ccc(S(=O)(=O)N4CCCC4)cc3)c2C(N)=O)C1
[17] Cc1ccc(N2CCC(=O)N2)cc1
[18] CCOc1ccc(S(=O)(=O)N2CCN(C3CC(=O)N(Cc4ccccc4)C3=O)CC2)cc1 (stereo unspecified)

Screen / compound no.	13	14	15	16	17	18
Mtb MbtI inh	14	i	39	-2	28	-12
MenB inh	-17	6	0	-60	-3	-15
Polio RdRp inh	104	100	100	110	97	103
Polio RdRp inh intensity	102	102	105	114	97	108

[19] Cc1ccc2nc(NCCCNC(=O)c3cnccn3)c(C#N)cc2c1
[20] CN1CCN(c2nc(-c3ccc(O)cc3O)cs2)CC1
[21] Cc1ccc2c(c1)-c1c(cnn1CC(=O)NCC1CCCO1)CO2 (stereo unspecified)
[22] Cc1nnc(NCCCN2CCOCC2)c2ccccc12
[23] CCN(CC)C(=O)C1CC(=O)OC1(C)C (stereo unspecified)
[24] CC(C)S(=O)(=O)c1csc(C(=O)OCC(=O)c2ccc(Cl)cc2)c1N

Screen / compound no.	19	20	21	22	23	24
Mtb MbtI inh	5	9	2	-5	nt	-3
MenB inh	-81	-38	7	0	-14	-5
Polio RdRp inh	105	97	102	100	111	106
Polio RdRp inh intensity	104	94	104	123	108	109

[25] CCOc1ccc(NC(C)C(=O)NC2(C#N)CCCCC2)cc1 (stereo unspecified)
[26] COc1cc2ncc(-c3ccccc3)nc2cc1OC
[27] Cc1ccc(C(C)C)c(OCC(=O)NCCC23CC4CC(CC(C4)C2)C3)c1
[28] O=C(NCSc1nc2ccccc2s1)C(F)(F)F
[29] Cn1c(=NC(=O)C2CCCCN2S(=O)(=O)c2cccc3nsnc23)sc2ccccc21 (stereo unspecified)
[30] COC(=O)c1ccc(NC(=O)/C(=C\c2ccco2)NC(=O)c2ccccc2OC)cc1

Screen / compound no.	25	26	27	28	29	30
Mtb MbtI inh	-21	2	-4	3	3	-2
MenB inh	-11	-5	-20	nt	-147	-18
Polio RdRp inh	101	101&100	103	102	104	108
Polio RdRp inh intensity	98	103&100	105	105	104	107

[31] Nc1nc(COC(=O)c2ccc(S(=O)(=O)C(F)F)cc2)nc(Nc2ccccc2)n1
[32] COc1cc(N)c(Cl)cc1C(=O)O
[33] COc1ccc(C(c2nnnn2C2CCCC2)N2CCN(C(=O)c3ccco3)CC2)cc1OC (stereo unspecified)
[34] O=c1c2ccccc2nnn1CSc1ccc(F)cc1
[35] c1ccc(CN2CCN(c3ccccc3)CC2)cc1
[36] CCOC(=O)COc1ccccc1C(=O)O

Screen / compound no.	31	32	33	34	35	36
Mtb MbtI inh	0	nt	-16	-21	-3	-13
MenB inh	-28	-10	-6	-18	-31	6
Polio RdRp inh	105	96	100	101	98	102
Polio RdRp inh intensity	101	92	101	101	100	98

[37] O=C(O)C1CCCN(C(=O)c2ccc(F)cc2)C1 (stereo unspecified)
[38] CCOC(=O)COc1cccc(Cl)c1
[39] O=C(COC(=O)c1ccc2ccccc2n1)c1ccc2[nH]c(=O)[nH]c2c1
[40] O=C(CC(c1ccccc1)c1ccccc1)NCc1nc(-c2ccccc2)no1
[41] Cc1cc(C)nc(NNC(=O)c2ccccc2)n1
[42] O=C(O)CCc1ccc(-c2ccccc2F)o1

Screen / compound no.	37	38	39	40	41	42
Mtb MbtI inh	-7	-8	-4	-3	8	17
MenB inh	-10	-12	5	-71	-12	-15
Polio RdRp inh	101	101	102	104	100	102
Polio RdRp inh intensity	103	102	106	106	99	108

[43] COc1ccc(NC(=O)CCN2CCN(C3c4ccccc4-c4ccccc43)CC2)cc1
[44] CC1CC(C)CN(C(=O)CSc2nncn2-c2cccc(Cl)c2)C1 (stereo unspecified)
[45] Cc1c(Cl)cccc1NCc1nc2ccccc2s1
[46] O=C(O)CCc1c(-c2ccccc2)cc2ccccn12
[47] O=C(NCC1COc2ccccc2O1)C1COc2ccccc2O1 (stereo unspecified)
[48] O=C(O)c1cccc(Nc2nc(Nc3ccccc3)nc(N3CCCC3)n2)c1

Screen / compound no.	43	44	45	46	47	48
Mtb MbtI inh	-6	-2	-4	nt	-10	12
MenB inh	-18	1	nt	-21	12	3
Polio RdRp inh	102	106	103	104	97	101
Polio RdRp inh intensity	104	108	99	111	103	98

[49] CN1CCN(/N=C/c2ccc(Cl)cc2)CC1
[50] O=C1CSC(=Nc2cccc(C(F)(F)F)c2)N1
[51] O=C1NC(C(=O)O)=CC(c2ccccc2)N1 (stereo unspecified)
[52] NNc1nncc2ccccc12
[53] CCn1c(C(=O)N2CCC(C(=O)O)CC2)cc2sccc21
[54] Cc1ccc(N(C)NC=C(C#N)C#N)nn1

Screen / compound no.	49	50	51	52	53	54
Mtb MbtI inh	6	-6	35	3&-1	2	9
MenB inh	-16	-9	-7	-6&6	-6	-6
Polio RdRp inh	104	102	102	99&99	102	91
Polio RdRp inh intensity	99	101	100	101&102	94	111

[55] O=C(OCCN1CCCC1=O)c1cccs1
[56] CC(C)C(NC(=O)c1ccccc1Cl)C(=O)NC1CCCCCC1 (stereo unspecified)
[57] O=C(N/N=C/c1ccc(N2CCOCC2)cc1)c1ccc(O)cc1
[58] COc1ccc(CN(C)C(=O)c2ccccc2OC)cc1
[59] COC(=O)[C@@H]1CCN[C@@H]1c1c(Cl)cccc1Cl
[60] CC(CCc1ccccc1)NC(=O)c1ccco1 (stereo unspecified)

Screen / compound no.	55	56	57	58	59	60
Mtb MbtI inh	-13	-13	-39	-19	-4	-3
MenB inh	nt	nt	-16	-7	9	-19
Polio RdRp inh	102	104	107	101	103	101
Polio RdRp inh intensity	106	106	106	101	104	104

[61] CC(C(=O)C(C#N)c1nc2ccccc2n1C)N1C(=O)c2ccccc2C1=O (stereo unspecified)
[62] CCOc1ccc2cc(-c3csc(N)n3)c(=O)oc2c1
[63] CC1c2nc3ccccc3n2C(CC(=O)NCc2ccc(Cl)cc2)C(=O)N1Cc1ccccc1 (stereo unspecified)
[64] CCc1nc2sc3c(NCCc4ccccc4)ncnc3c2c2c1CCCC2
[65] CC(C)(C)NC(=O)Cc1csc2nc(-c3ccccc3)cn12
[66] COc1cc(/C=C\C(=O)NCCc2cc3ccc(C)cc3[nH]c2=O)cc(OC)c1OC

Screen / compound no.	61	62	63	64	65	66
Mtb MbtI inh	3	6	3	-6	-16	-79
MenB inh	-10	-23	-10	5	-10	-6
Polio RdRp inh	107	104	99	102	102	100
Polio RdRp inh intensity	114	101	99	109	103	103

[67] Cc1cccc(NC(=O)c2ccc3ccccc3c2)c1C
[68] CC1(C)NN(CCO)C(=Nc2ccccc2)S1
[69] CCOC(=O)N1CCN(C(=O)c2ccc(-n3c(=S)[nH]c4ccccc4c3=O)cc2)CC1
[70] CCN1CCN(c2nc(-c3ccc(C(C)(C)C)cc3)nc3ccccc23)CC1
[71] O=C(NCc1ccco1)c1ccc2c(=O)n(C3CCCCC3)c(SCc3cc(F)ccc3F)nc2c1
[72] Cc1ccc2c(=O)cc(-c3cccc(F)c3)oc2c1

Screen / compound no.	67	68	69	70	71	72
Mtb MbtI inh	-6	12	2	5	-18	11
MenB inh	0	-19	-11	-10	-2	-10
Polio RdRp inh	99	104	102	98	102	101
Polio RdRp inh intensity	103	92	98	97	102	101

[73] Cn1c(/C(C#N)=C(\O)CN2C(=O)CCC2=O)nc2ccccc21
[74] COc1ccc(-c2oc(NC(=O)Cc3ccc(OC)c(OC)c3)c(C#N)c2-c2ccc(OC)cc2)cc1
[75] CCCc1nc2ccccc2n1CC(=O)N1CCc2ccccc21
[76] O=c1c2c(-c3ccccc3)ccnc2[nH]n1-c1ccccc1
[77] C=CCN(C(=O)Cc1ccc(OC)cc1)c1nnc(-c2ccc(Cl)cc2)s1
[78] CCN(CC)C(=O)Cn1c(=O)n(-c2ccc(F)cc2)c(=O)c2oc3ccccc3c21
[79] O=C(N/N=C/Cc1ccccc1)c1ccccc1O
[80] COc1ccc2cc(C(=O)CBr)ccc2c1
[81] O=C(/C=C/c1cn(-c2ccccc2)nc1-c1ccc(F)cc1)NCc1ccccn1

Screen / compound no.	73	74	75	76	77	78	79	80	81
Mtb MbtI inh	5	5	-4	-1	35	47	-6	149	4
MenB inh	-13	-13	nt	-24	-17	-28	8	nt	nt
Polio RdRp inh	102	100	100	105&107	102	105	99	103	98
Polio RdRp inh intensity	102	105	103	106&102	103	103	103	102	108

Molecules from the list above with a Cl atom, in the order listed:
[3] C/C(=C\C(=O)Nc1ccc(Cl)cc1)NCc1ccco1
[7] CN(CC(=O)Nc1ccccc1Cl)C1CCS(=O)(=O)C1 (stereo unspecified)
[15] COC(=O)C1CSCC/C1=N\Nc1ccc(Cl)cc1Cl (stereo unspecified)
[24] CC(C)S(=O)(=O)c1csc(C(=O)OCC(=O)c2ccc(Cl)cc2)c1N
[32] COc1cc(N)c(Cl)cc1C(=O)O
[38] CCOC(=O)COc1cccc(Cl)c1
[44] CC1CC(C)CN(C(=O)CSc2nncn2-c2cccc(Cl)c2)C1 (stereo unspecified)
[45] Cc1c(Cl)cccc1NCc1nc2ccccc2s1

Screen / compound no.	3	7	15	24	32	38	44	45
Mtb MbtI inh	5	6	39	-3	nt	-8	-2	-4
MenB inh	-4	-22	0	-5	-10	-12	1	nt
Polio RdRp inh	104	99	100	106	96	101	106	103
Polio RdRp inh intensity	102	100	105	109	92	102	108	99

[49] CN1CCN(/N=C/c2ccc(Cl)cc2)CC1
[56] CC(C)C(NC(=O)c1ccccc1Cl)C(=O)NC1CCCCCC1 (stereo unspecified)
[59] COC(=O)[C@@H]1CCN[C@@H]1c1c(Cl)cccc1Cl
[63] CC1c2nc3ccccc3n2C(CC(=O)NCc2ccc(Cl)cc2)C(=O)N1Cc1ccccc1 (stereo unspecified)
[77] C=CCN(C(=O)Cc1ccc(OC)cc1)c1nnc(-c2ccc(Cl)cc2)s1

Screen / compound no.	49	56	59	63	77
Mtb MbtI inh	6	-13	-4	3	35
MenB inh	-16	nt	9	-10	-17
Polio RdRp inh	104	104	103	99	102
Polio RdRp inh intensity	99	106	104	99	103
